Vaccinia Venus: vaccinia inhibition (Venus reporter); Vaccinia virus Venus reporter expression, fluorescence; Potency, µM (doses to about 36.5 µM), for inactives: at the top dose activity change, negative = inhibition, actives largely listed as inhibitors; hit rate 0.46% among 330,000; AID 720580; active means well fitted inhibition curve with a large enough effect; inconclusive means small, poorly fitted or top-dose-only effect; inactive means no such curve, though single readings can be large or run the other way; tested in A549 cells; also: nearly all actives have a fitted effect of over 30% in size; inactives centre near -10
Vaccinia mCherry: vaccinia inhibition (mCherry reporter); hit rate 0.63% among 310,000; Vaccinia virus mCherry reporter infection, fluorescence; about a quarter of the inactives have no number; Potency, µM (series often up to 36.5 µM), for the others: top-dose activity change, negative = inhibition, actives largely listed as inhibitors; active = well fitted inhibition curve with a large enough effect; inconclusive = small, poorly fitted or top-dose-only effect; inactive = no such curve, though single readings can be large or run the other way; tested in A549 cells; also: nearly all actives have a fitted effect of over 35% in size; inactives centre near -10
Numbers without * were called inactive; i = inactive; ? = inconclusive; . = not tested or not shown; [ ] = another dose, or the depositor's remark. % is scaled to controls: 0 for no effect and ±100 for the full control effect; potency is read from the fitted curve at half-maximal effect. Random draw from the library (roughly 0.88% active in at least one column).

SMILES | Vaccinia Venus | Vaccinia mCherry
CC(O)C(NS(=O)(=O)c1ccc(Cl)cc1)C(=O)OCc1nnc(-c2ccccc2)o1 (configuration not stated) | -13% | .
Cc1cccc(NC(=O)C2CCN(S(=O)(=O)c3cccc4nsnc34)CC2)c1C | -8% | -11%
COc1ccc(N2C(=O)NC(=O)/C(=C\c3ccccc3[N+](=O)[O-])C2=O)cc1 | 3% | -6%
Cc1cccc(C(=O)Nc2ccc3oc(-c4ccncc4)nc3c2)c1 | -8%[7.34 µM] | -12%[7.34 µM]
NNC(=O)c1cc2c(s1)CCCCCC2 | ? | .
CC(C)C(OC(=O)c1cccs1)C(=O)NCc1cccs1 (configuration not stated) | -9% | -8%
CCc1c(C)c2ccc(OC(C)C(=O)NC(Cc3c[nH]c4ccc(O)cc34)C(=O)O)c(C)c2oc1=O (configuration not stated) | 1% | -1%
Nc1cnn(-c2ccccc2)c(=O)c1Cl | -10% | i
COc1ccc(C(=O)CSc2nc3ncccc3[nH]2)cc1OC | -12%[7.34 µM] | i[7.34 µM]
CCc1nnc(NC(=O)CSc2ccc(-c3ccco3)nn2)s1 | 1% | i
COc1ccc(C2(C)NC(=O)N(CC(=O)Nc3ccc(S(=O)(=O)N4CCCC4)cc3)C2=O)cc1 (configuration not stated) | -3% | -15%
CCSC1=C(C#N)C2(CCCCC2)C2=C(CC(C)(C)CC2=O)N1 | -9% | -26%
CCOC(=O)c1ccc(NC(=O)CSc2nc3c(c(=O)n2-c2ccccc2OC)SCC3)cc1 | -13% | -24%
COc1ccc(Cl)cc1N/C(N)=N/c1nc(C)cc(=O)[nH]1 | 7% | i
O=C(c1cc([N+](=O)[O-])ccc1Cl)N1CCN(Cc2ccc3c(c2)OCO3)CC1 | -23% | -10%
Cn1nnnc1SCC(=O)NC1CCCCC1 | -7% | .
COCc1cccc(-c2csc(C(O)c3ccc(F)c(F)c3)n2)c1 (configuration not stated) | ? | ?
CCN(C[C@H]1N[C@@](Cc2ccccc2)(C(=O)OC)[C@H]2C(=O)N(C)C(=O)[C@@H]12)S(=O)(=O)c1ccc(-c2ccccc2)cc1 | -25% | -1%
COc1ccc2c(c1OC)OCC(c1ccc(OC)c(OC)c1OC)C2 (configuration not stated) | -19% | -10%
CCOc1ccccc1NC(=O)c1c(NC(=O)COc2ccccc2)sc2c1CCCCC2 | -11% | -16%
Clc1cccc(Oc2ncccn2)c1 | -8% | i
O=C(Nc1ccccc1Cl)c1ccc([N+](=O)[O-])o1 | ? | ?
Cc1ccc(N2CC(C(=O)OCc3ccc([N+](=O)[O-])cc3)CC2=O)cc1 (configuration not stated) | -13% | .
Cc1ccc2[nH]c3c(=O)n(CC(=O)N4CCN(c5ccccc5F)CC4)ncc3c2c1 | -8% | -7%
O=C(O)C(c1ccccc1)C(c1ccccc1)c1ccccc1 (configuration not stated) | -13% | i
CC(C(=O)Nc1ccc2c(c1)OCO2)N(C)CC(=O)Nc1ccc(Cl)cc1 (configuration not stated) | -9% | -19%
CCCN1C(=O)C(NC(=O)c2ccncc2)(C(F)(F)F)C2=C1CC(C)(C)CC2=O (configuration not stated) | -14% | -15%
COc1ccc2cc(CNc3ccc(OC)c(OC)c3)c(=O)n(CC(=O)Nc3ccccc3F)c2c1 | 3% | -8%
Cc1ccc2nc(NC(=O)c3cccc(-c4cc5ccccc5oc4=O)c3)sc2c1 | -3% | i
CC(C)CCN(C(=O)Nc1ccc(Cl)c(Cl)c1)C(C)c1cccs1 (configuration not stated) | 1% | -1%
CC(C)(C)OC(=O)N(Cc1ccccc1)Cc1ccccc1OCc1cccc(NC(=O)c2ccccc2)c1 | -18% | i
O=C(OCC(=O)N1CCN(C(=O)c2ccco2)CC1)c1ccccc1O | 6% | -3%
O=C(Nc1ccc(F)cc1)c1cccnc1NCCc1ccccc1 | -10% | -24%
Nn1c(Cc2cccc3ccccc23)nnc1SCCOc1ccc(Br)cc1 | -25% | -10%
C[C@@H]1NC(=O)c2cc([N+](=O)[O-])cc(I)c2OCC[C@@H](C(N)=O)NC(=O)[C@H](CCCCN)NC1=O | -2% | -26%
CC(C)(CC(=O)NCc1ccc(Cl)cc1Cl)CC1=NS(=O)(=O)c2ccccc2N1 | -12% | 9%
COc1ccc(NC(=O)CC2C(=O)N(c3ccc(C)cc3)C(=O)N2C2CCCC2)cc1 (configuration not stated) | -5% | -12%
N#Cc1c(=O)c2nc(NCCCO)ncc2n2c(=O)c3ccccc3[nH]c12 | -8% | -27%
Cc1nn(Cc2ccc([N+](=O)[O-])cc2)c(=O)n1-c1ccccc1Cl | 1% | -2%
Cn1c(=O)oc2cc(S(=O)(=O)N3CCCC(C(=O)Nc4nccs4)C3)ccc21 (configuration not stated) | -7% | -14%
COc1ccc(COC[B-](F)(F)F)cc1 | -2% | -15%
COc1cc(OC)c(C(=O)NCc2cccnc2)cc1OC | -6% | i
CC(NC(=O)COC(=O)c1cccc(S(=O)(=O)N2CCCC2)c1)c1ccccc1 (configuration not stated) | -14% | -10%
CC1CCN(C(=O)c2ccc(S(=O)(=O)Cc3cc(F)ccc3F)c([N+](=O)[O-])c2)CC1 | -10% | i
Cc1cc(C)cc(NC(=S)/N=C(\N)Nc2nc(C)c3ccccc3n2)c1 | -19% | ?
COc1cc(C2Nc3ccccc3NC3=C2C(=O)CC(C)(C)C3)cc(OC)c1OC (configuration not stated) | -14% | -6%
COC(=O)c1ccccc1NC(=O)c1ccc(Cn2cc(Cl)cn2)o1 | -7% | i
CCOC(=O)N1CCC2(CC1)CC(=O)c1cc(O)ccc1O2 | -11% | .
CC(OC(=O)c1cc(O)c2ccccc2c1O)C(=O)Nc1ccc(C(N)=O)cc1 (configuration not stated) | -17% | ?
O=C(Cn1c(SCC(=O)Nc2ccc(F)cc2)nc2ccccc21)NCc1ccc(F)cc1 | -7% | -18%

The results go on.
SMILES | Vaccinia Venus | Vaccinia mCherry
COc1ccccc1NS(=O)(=O)c1cc(NC(=S)NCCN2CCOCC2)ccc1N1CCOCC1 | -11% | -23%
COc1ccc(C(C(=O)NC(C)(C)C)N(CC2CCCO2)C(=O)CCC(=O)Nc2cc(C)on2)cc1 (configuration not stated) | -11% | i
CC/C(=N\NC(=O)c1ccccc1)c1c(O)n(Cc2ccccc2)c(=O)[nH]c1=O | -12% | -6%
COC(=O)c1sc2c(c1C)c(=O)n(-c1ccccc1)c(=O)n2CC(=O)Nc1cccc(C)c1 | -4% | -3%
Cc1ccc(C)c(NC(=O)C2CCCN(c3nc4ccccc4s3)C2)c1 (configuration not stated) | -11% | -5%
CN1C2CCC1CC(NS(=O)(=O)c1ccc(C#N)cc1)C2 (configuration not stated) | 7% | -12%
CC(C)NC(=O)CCc1nnc(Cc2cccc(C(F)(F)F)c2)o1 | 9% | i
COc1cc(F)ccc1-c1cc(C(=O)NCc2cc(C(F)(F)F)cc(C(F)(F)F)c2)[nH]n1 | 67%[activator] | -16%
CCSc1nnc(NC(=O)c2ccc3ccccc3n2)s1 | ? | .
O=C(COC(=O)c1ccccn1)c1cccc(Br)c1 | -7% | i
CCC(=O)N1CCc2cc(S(=O)(=O)NC(Cc3ccccc3)C(=O)NCc3ccccc3OC)ccc21 (configuration not stated) | -8% | -6%
Cc1ccc(Cl)cc1Nc1nc(N2CCOCC2)nc(N2CCOCC2)n1 | -8% | -8%
O=C(COC(=O)c1cc([N+](=O)[O-])ccc1N1CCOCC1)Nc1cc(F)ccc1F | -12% | -27%
NC(=O)[C@H]1CC2(CC(c3cccc(NC(=O)CC(c4ccccc4)c4ccccc4)c3)=NO2)CN1C(=O)CC(c1ccccc1)c1ccccc1 (some centres not stated) | -26% | -5%
CCOC(=O)COc1ccc2c(=O)c(-c3ccc(OC)c(OC)c3)c(C(=O)OCC)oc2c1 | -24% | i
Cn1cnc2c1c(=O)n(Cc1ccc(F)cc1Cl)c(=O)n2C | -10% | -10%
Cc1ccc(/C=C/C(=O)NCc2ccc3c(c2)OCO3)o1 | -3% | -16%
Cc1ccc(NC2(c3ccccc3)C(=O)c3ccccc3C2=O)cc1F | -13% | -13%
Cc1ccc(S(=O)(=O)Nc2ccc3ncccc3c2[N+](=O)[O-])cc1 | ? | ?
COC(=O)[C@H](CCSC)NC(=O)Nc1cc(OC)cc(OC)c1 | -13% | i
O=C(CN(c1ccc2c(c1)OCCO2)S(=O)(=O)c1ccccc1)NCc1ccc(Cl)cc1 | -20% | -21%
C=CCn1c(=O)n2ncnc2c2c3c(sc21)CCCC3 | -15% | -28%
COc1cc(NC(=O)c2cccs2)ccc1NC(=O)c1ccco1 | ? | -24%
COc1ccc(CN2C(=O)C(CC(=O)NCCCN(C)C)CC(C(=O)N(C)C)=C2C)cc1 (configuration not stated) | 2% | -7%
CN(C)c1ccc(CNC(=O)c2cccc(NC(=O)N3CCSc4ncccc43)c2)cc1 | -3%[7.34 µM] | -3%[7.34 µM]
CCOc1ccc(NC(=O)c2ccc(-c3cccc(Cl)c3C)o2)cc1 | -9% | -7%
CC(C)CCN1CCC[C@]2(N[C@H](c3ccc(C(F)(F)F)cc3)[C@@H]3C(=O)N(Cc4ccccc4)C(=O)[C@@H]32)C1=O | ? | -12%
CCS(=O)(=O)N1Cc2ccccc2CC1C(=O)Nc1ccc(NC(C)=O)cc1 (configuration not stated) | 1% | 3%
CC(C)N(C(=O)[C@H]1C[C@H](CC(=O)NCCc2ccccn2)C(=O)N2CCc3c([nH]c4cc(CCC(=O)N(C)C)ccc34)[C@]12C)C(C)C | -14% | i
CCOc1cc(/C=C/c2cc(C(F)(F)F)[nH]c(=O)n2)ccc1O | -23% | ?

Entries of single compounds, quoted from the list.
O=C(CN(c1ccc2c(c1)OCCO2)S(=O)(=O)c1ccccc1)NCc1ccc(Cl)cc1 in the list: Vaccinia Venus: -20%; Vaccinia mCherry: -21%
C=CCn1c(=O)n2ncnc2c2c3c(sc21)CCCC3 in the list: Vaccinia Venus: -15%; Vaccinia mCherry: -28%

(cont.)
SMILES | Vaccinia Venus | Vaccinia mCherry
CCOC(=O)c1c(O)c2cccc3c2n(c1=O)CC3 | -11% | -10%
C=C1C(C2(C)C=CC(=O)C(C)(C)C2CC(=O)OC)CC[C@@]2(C)C(c3ccoc3)OC(=O)C3OC132 (some centres not stated) | -28% | -21%
CCS(=O)(=O)c1nc(S(=O)(=O)c2ccc(C)cc2)c(N2CCCC2)s1 | 0%[7.34 µM] | 0%[7.34 µM]
O=P(OC1CCCCC1)(OC1CCCCC1)C(O)c1cccnc1 (configuration not stated) | -13% | -3%
O=C(c1scc2c1CCCC2)N1CCCCC1 | -12% | -16%
CCOC(=O)C1CCCN(CCC(=O)Nc2ccccc2)C1 (configuration not stated) | -14% | .
O=C(/C=C/c1ccc2c(c1)OCO2)c1ccc[nH]1 | ? | ?
COc1cc([C@@H]2c3cc4c(cc3[C@H](O)[C@H]3COC(=O)[C@@H]23)OCO4)cc(OC)c1OC | -28% | ?
CCN1CCCC(OC(=O)c2cc(-c3ccc(C)cc3)nc3ccccc23)C1 (configuration not stated) | -25% | -24%
CCN1CCN(C(=O)Nc2ccc(OC)cc2OC)CC1 | 7% | ?

Compounds above containing a cyano group, in the order listed:
SMILES | Vaccinia Venus | Vaccinia mCherry
CCSC1=C(C#N)C2(CCCCC2)C2=C(CC(C)(C)CC2=O)N1 | -9% | -26%
N#Cc1c(=O)c2nc(NCCCO)ncc2n2c(=O)c3ccccc3[nH]c12 | -8% | -27%
CN1C2CCC1CC(NS(=O)(=O)c1ccc(C#N)cc1)C2 (configuration not stated) | 7% | -12%

Look-ups from the list.
O=C(c1scc2c1CCCC2)N1CCCCC1 | Vaccinia mCherry: -16%
CCSC1=C(C#N)C2(CCCCC2)C2=C(CC(C)(C)CC2=O)N1 | Vaccinia mCherry: -26%
CC(NC(=O)COC(=O)c1cccc(S(=O)(=O)N2CCCC2)c1)c1ccccc1 (configuration not stated) | Vaccinia Venus: -14%
Cc1cccc(NC(=O)C2CCN(S(=O)(=O)c3cccc4nsnc34)CC2)c1C | Vaccinia mCherry: -11%
CC(C)CCN1CCC[C@]2(N[C@H](c3ccc(C(F)(F)F)cc3)[C@@H]3C(=O)N(Cc4ccccc4)C(=O)[C@@H]32)C1=O | Vaccinia mCherry: -12%
Cn1c(=O)oc2cc(S(=O)(=O)N3CCCC(C(=O)Nc4nccs4)C3)ccc21 (configuration not stated) | Vaccinia Venus: -7%

The results go on.
SMILES | Vaccinia Venus | Vaccinia mCherry
COCCNC(=O)C(C#N)c1nc2ccccc2nc1N1CCCCCC1 (configuration not stated) | -12% | -17%
Cc1cc(/C=C2\C(=N)N3N=CSC3=NC2=O)c(C)n1Cc1ccccc1 | 3% | i
CSc1ccccc1NC(=O)c1ccncc1 | -9% | -5%
c1cn(CCCNc2ncnc3nc[nH]c23)cn1 | -11% | -10%
O=C(Nc1ccc(F)cc1)C(c1ccnc2ccccc12)N1CCN(CC(=O)N2CCCC2)CC1 (configuration not stated) | -8% | -20%
CN1C(=O)C(C)(C2=CCCCC2)C(=O)NC1=S (configuration not stated) | -9% | i
O=C(Nc1ccc(F)cc1)C(c1cccc(F)c1)N1CCN(c2cccc(C(F)(F)F)n2)CC1 (configuration not stated) | -23% | -8%
CC(C)c1ccc2c(c1)c(SC(C)(C)C)c(CC(C)(C)C(=O)O)n2Cc1ccc(Cl)cc1 | ? | ?
C=C1CCN([C@@H](CC(C)C)C(=O)NCc2ccc(Cl)c(Cl)c2)S(=O)(=O)c2ccccc21 | ? | -8%
Cc1nc2ccc(C(=O)N3CCSCC3)cc2s1 | -1% | -5%
COc1ccc(CCNC(=O)c2ccc(Cn3c(=O)c4ccccc4n(Cc4ccc(F)cc4Cl)c3=O)cc2)cc1OC | -6% | 5%
CCOc1ccc(CCNC(=O)c2sc3nc4n(c(=O)c3c2C)CCCC4)cc1 | -10% | 5%
